Compound activity deposited in PubChem by ICCB-Longwood Screening Facility, Harvard Medical School.
Ba CapD inh: blocks the Bacillus anthracis CapD enzyme. z-score (test concentration not listed). AID 492967. 140,000 tested, 0.23% active. purified CapD enzyme, fluorescence intensity read-out; active compounds read low; some hits fall short of the stated cut;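 active means z-score under -4 in either of two replicates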;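 further: stock transfer was 100 nL into about 40 µL; score is relative to mean and spread of the plate; one replicate is shown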
AID504770: growth inhibitors of E. coli YBA685 in a screen for V. cholerae RctB (chromosome II replication) inhibitors | E. coli YBA685 rctB-dependent plasmid, OD600 growth, 3 h; active compounds read low | z-score (test concentration not listed) | 130,000 tested, 0.27% active;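 active means z-score under -2 on both plates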;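 further: wells of about 30 µL received 100 nL stock; score is relative to mean and SD of the test wells; the first replicate is given; strong numbers were not always called active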
Starred values were filed as active, the others as inactive.

CC(C)(C)NS(=O)(=O)c1ccc(NC(=O)Nc2ccc(Cl)cc2)cc1 was read as Ba CapD inh 0.09 and AID504770 -0.6.
For OCc1cn2c(n1)sc1ccccc12 the results were Ba CapD inh -0.345.
Screening COc1cc(OC)cc(N2CCN(C(=O)OCC3CCCCN3Cc3cc4c(cc3[N+](=O)[O-])OCO4)CC2)c1 (centres undefined) returned Ba CapD inh -0.375.
For CN(C)/C=C/C(=O)c1nn(-c2ccc(F)cc2)ccc1=O the results were Ba CapD inh -2.27 and AID504770 0.1.
O=c1oc2ccc(NS(=O)(=O)c3ccc(F)cc3)cc2s1 was read as Ba CapD inh 0.09 and AID504770 -0.7.
For COc1ccc(NC(=O)c2ccc(N3CC4CC(C3)c3cccc(=O)n3C4)c(NC(=O)c3ccc(F)cc3)c2)cc1OC (centres undefined) the results were Ba CapD inh -0.285.
For CCOP(=O)(OCC)c1nc(-c2ccccc2Cl)oc1NCc1ccccc1 the results were Ba CapD inh 14.1.
For CCCCC1CCC(C(=O)Nc2c3c(nn2-c2ccccc2C)CS(=O)C3)CC1 (centres undefined) the results were Ba CapD inh -0.37 and AID504770 0.95.
`COc1ccc(C2C3=C(OC(C)=O)c4ccccc4C3=Nc3c2c(=O)n(C)c(=O)n3C)cc1` (centres undefined) gave Ba CapD inh -0.515.
For CC1CC(C)CN(S(=O)(=O)c2ccc(NC(=O)C3COc4ccccc4O3)cc2)C1 (centres undefined) the results were Ba CapD inh 0.005 and AID504770 1.7.
For c1cnc2sc(-n3cccc3)nc2c1 the results were Ba CapD inh 0.515 and AID504770 2.9.
`Cc1cc(C)n(Cc2ccc(C(=O)O)cc2)n1` gave Ba CapD inh -0.055 and AID504770 -0.45.
`COc1ccccc1/C=C/CN1CC(C)OC(C)C1` (centres undefined) gave Ba CapD inh 0.235 and AID504770 -1.
For CCC(=O)Oc1ccc2c(C)c(C)c(=O)oc2c1 the results were Ba CapD inh 44.6 and AID504770 -0.4.
`O=c1cc(-c2ccccc2)nc(SCCOc2ccc3c(c2)OCO3)[nH]1` gave Ba CapD inh 0.36 and AID504770 -0.8.
For Cc1cc(N/C=C2\CCCCC2=O)no1 the results were Ba CapD inh -5.05 and AID504770 1.4.
Screening Cc1c(C(=O)CSc2n[nH]c(=O)n2-c2cccnc2)sc2ccc(Cl)cc12 returned Ba CapD inh 0.825 and AID504770 0.2.
For O=C(Nc1noc2ccccc12)c1cc2c(s1)-c1ccccc1CC2 the results were Ba CapD inh 135 and AID504770 0.1.
Screening CCOC(=O)CSc1nnc(-c2ccc(S(=O)(=O)NCc3cccs3)cc2)o1 returned AID504770 0.05.
For O=C(Cc1ccc(S(=O)(=O)N2CCOCC2)s1)Nc1nnc(C2CC2)s1 the results were AID504770 -0.2.
N#Cc1cn(-c2ccc([N+](=O)[O-])cc2)nc1N was read as Ba CapD inh -0.25.
CCOC(=O)C1=C(CSc2nc3ccccc3c(=O)n2C(C)CC)NC(=O)NC1C (centres undefined) was read as AID504770 -0.05.
CC1(C)C(/C=C/c2cccc(I)c2)=[N+]([O-])C(C)(C)N1O was read as AID504770 0.3.
COC(=O)C1=C(O)/C(=C\c2ccccc2OC)N=C1C was read as Ba CapD inh -0.315 and AID504770 -0.7.
`CC(N)c1cc(F)c(Cl)cc1Cl` (centres undefined) gave AID504770 0.05.
Screening O=S(=O)(c1ccc(F)cc1)c1cc(C(F)(F)F)cc(C(F)(F)F)c1 returned Ba CapD inh 0.035 and AID504770 0.8.
Screening Cc1ccc(-c2nn(CC(=O)Nc3cccnc3)c(=O)c3ccccc23)cc1 returned Ba CapD inh 0.48 and AID504770 0.3.
CC(NC(=O)Cn1ncc2c1-c1ccccc1OC2)c1ccc2c(c1)OCCO2 (centres undefined) was read as Ba CapD inh 0.205 and AID504770 -0.7.
CCN1CCN(C(=O)c2sc3ncnc(N4CCN(c5ccccc5F)CC4)c3c2C)CC1 was read as Ba CapD inh -0.23.
`Cc1ccc2nc(N3CCN(Cc4nnnn4Cc4ccccc4)CC3)c(C#N)cc2c1` gave AID504770 0.1.
`O=S(=O)(NCCCN1CCc2ccccc2C1)c1ccc(-c2cc(C(F)(F)F)no2)s1` gave Ba CapD inh 0.225 and AID504770 -0.45.
Screening COc1cc2c(cc1OC)C(CNC(=O)OCc1ccccc1)NCC2 (centres undefined) returned AID504770 -0.45.
`CC(C)CNC1CCC(O)CC1` (centres undefined) gave AID504770 -0.25.
`N#Cc1ccccc1CSc1nnnn1-c1ccccc1` gave AID504770 -0.35.
CSc1ccc(-c2sc(C)nc2C)nn1 was read as AID504770 -1.1.
Screening O=C(Cn1nnc2ccccc2c1=O)NC(=O)NCc1ccccc1 returned AID504770 -0.55.
For COc1ccccc1OCC(=O)NN1S(=O)(=O)c2ccccc2S1(=O)=O the results were Ba CapD inh -2.87.
Screening c1coc(-c2nnc(-c3cc4c(s3)CCCC4)o2)c1 returned AID504770 -0.25.
COc1ccc(C=Nc2ccc(C(N)=O)cc2)cc1 was read as Ba CapD inh -0.03 and AID504770 1.25.
`O=C(O)CCCOc1cccc2cccnc12` gave AID504770 -1.05.

4 successive records from above, quoted:
Screening COc1cc2c(cc1OC)C(CNC(=O)OCc1ccccc1)NCC2 (centres undefined) returned AID504770 -0.45.
`CC(C)CNC1CCC(O)CC1` (centres undefined) gave AID504770 -0.25.
`N#Cc1ccccc1CSc1nnnn1-c1ccccc1` gave AID504770 -0.35.
CSc1ccc(-c2sc(C)nc2C)nn1 was read as AID504770 -1.1.

(listing goes on)
Screening CCOc1cc2c(cc1OCC)C1CC(=O)N(c3cccc(C)c3)C(=O)N1CC2 (centres undefined) returned Ba CapD inh 74 and AID504770 -0.9.
`O=c1oc2cc(O)ccc2cc1-c1nnc(NC2CCCCC2)s1` gave Ba CapD inh 6.4.
O=C(CSc1ccc2ccccc2c1)N1CCN(c2ccccc2F)CC1 was read as Ba CapD inh -0.425 and AID504770 2.25.
For CCOC(=O)Nc1ccc2c(c1)N(C(=O)CCN(C)C)c1ccccc1S2 the results were Ba CapD inh 0.015 and AID504770 0.1.
Cc1cc2oc(C(=O)NC3CCS(=O)(=O)C3)cc(=O)c2cc1C (centres undefined) was read as Ba CapD inh 1.76 and AID504770 -0.75.
Screening O=C(N/N=C/c1cn(-c2ccccc2)nc1-c1ccccc1)c1ccccc1 returned Ba CapD inh 0.19.
For CCOc1ccc(CCNC(=O)Nc2ccc3snnc3c2)cc1 the results were Ba CapD inh -1.29 and AID504770 1.75.
Screening Cc1cc(Sc2nnc(C(F)(F)F)n2C)c([N+](=O)[O-])cc1[N+](=O)[O-] returned Ba CapD inh 0.44.
Cc1ccc(S(=O)(=O)NN2C(=O)S/C(=C/c3ccccc3)C2=S)cc1 was read as Ba CapD inh 1.57 and AID504770 -0.4.
`COc1ccccc1N1CCN(C(=O)c2sc3nc(C)nc(N4CCC(C)CC4)c3c2C)CC1` gave Ba CapD inh 0.49.
`O=C(Nc1ccc(-c2noc(-c3ccccc3[N+](=O)[O-])n2)cc1)c1ccc(Br)o1` gave Ba CapD inh -0.355.
CC(=O)C1=NN(c2cccc(Cl)c2)C2(S1)SC(c1ccccc1C)(c1ccccc1C)c1ccccc12 (centres undefined) was read as Ba CapD inh -0.59.
`O=c1ccc2cc(S(=O)(=O)n3ccnc3)ccc2o1` gave AID504770 0.4.
`NC(=S)N/N=C/c1cc(F)cc(F)c1` gave Ba CapD inh -0.06.
For OCCCNCc1cc(Cl)c2c(c1)OCCCO2 the results were AID504770 0.25.
Screening Nc1c(-c2ccc(F)cc2)cnn1-c1nc(-c2cccc(F)c2)cs1 returned Ba CapD inh -0.265.
`CSC1=NC(=Nc2cccc(C)c2)C2(CCCC2)N1c1ccccc1Cl` gave Ba CapD inh -0.175.
`N#CCCN1C(=O)C2CC=CCC2C1=O` (centres undefined) gave Ba CapD inh -0.675 and AID504770 2.15.
Screening COc1ccc(S(=O)(=O)N(Cc2ccc(Cl)cc2)Cc2ccc3cc[nH]c3c2)cc1 returned Ba CapD inh -0.14.
Screening COC(=O)C1=C(Nc2ccc(OC(=O)c3cccc(C(F)(F)F)c3)cc2)CSC1 returned Ba CapD inh -0.89 and AID504770 -0.4.
Screening Cc1onc(-c2ccccc2)c1CNC(=O)c1ccccc1C(=O)O returned Ba CapD inh 0.125 and AID504770 -1.
Screening CCC(C)N(C(=O)Nc1cc(C)ccc1OC)C(C)CC (centres undefined) returned Ba CapD inh -0.175 and AID504770 -0.35.
For Cc1ccc(C)c(C2C(C#N)=C(N)OC3=C2C(=O)CCC3)c1 (centres undefined) the results were AID504770 0.1.
`CCN(CC)C(=O)CN1C(=O)COCC1=O` gave Ba CapD inh 0.07 and AID504770 0.05.
Screening COc1cc(OC)cc(C(c2[nH]c(C)nc2O)C(C#N)C#N)c1 (centres undefined) returned Ba CapD inh 37.8 and AID504770 0.8.
`Cc1onc(-c2c(F)cccc2Cl)c1C(=O)NC1C2CC3CC(C2)CC1C3` (centres undefined) gave Ba CapD inh -0.24 and AID504770 -0.3.
Screening Cc1cccc(NS(=O)(=O)c2ccc3c(c2)CC(C)N3C(=O)C2CC2)c1 (centres undefined) returned Ba CapD inh 0 and AID504770 -0.55.
`COc1cc(C2Nc3cccc4cccc(c34)N2)ccc1OC(C)=O` gave Ba CapD inh 13.5.
For Cc1cc(C)c(-n2nnnc2SCC(=O)NCCc2ccccc2)c(C)c1 the results were Ba CapD inh -0.185 and AID504770 -0.2.
CC1CCN(CC(=O)Nc2ccc(Cl)cc2Cl)CC1 was read as Ba CapD inh 0.525 and AID504770 0.95.
Screening CSc1sc(C(=O)O)c(N)c1S(=O)(=O)C(C)C returned Ba CapD inh -0.54.
Nc1cc(N)c2c(c1)Oc1ccccc1CC2 was read as AID504770 -0.4.
`CCOC(=O)C1N=C2C(=[N+]([O-])C1N)COC(C)(C)/C2=N\O` (centres undefined) gave Ba CapD inh 2.28 and AID504770 -0.4.
O=C(/C=C/c1cc2cccc3c2n(c1=O)CC3)N1CCOCC1 was read as Ba CapD inh 3.99.
For CC(=O)Nc1ccc2nc(N)sc2c1 the results were Ba CapD inh 0.64 and AID504770 -0.6.
Screening CCN(C(=O)c1ccc(S(=O)(=O)N(C)C)cc1)c1nc2c(C)cccc2s1 returned AID504770 1.65.
For O=c1c(COCc2ccccn2)cc2cccc3c2n1CCC3 the results were Ba CapD inh 11.1.
CCN(c1cccc(C)c1)S(=O)(=O)c1c[nH]c(C(=O)OC)c1 was read as Ba CapD inh -0.41 and AID504770 0.95.
`FC(F)(F)c1cnc(Oc2ccc(-n3cc4ccsc4c3)cc2)c(Cl)c1` gave Ba CapD inh -0.92.
For Cc1ccc(-c2nc3ccc(Cl)cc3n2OCC(N)=O)cc1 the results were Ba CapD inh 0.685 and AID504770 -0.45.

Among those listed so far, 5 contain an NH in an aromatic ring:
`O=c1cc(-c2ccccc2)nc(SCCOc2ccc3c(c2)OCO3)[nH]1` gave Ba CapD inh 0.36 and AID504770 -0.8.
Screening Cc1c(C(=O)CSc2n[nH]c(=O)n2-c2cccnc2)sc2ccc(Cl)cc12 returned Ba CapD inh 0.825 and AID504770 0.2.
Screening COc1ccc(S(=O)(=O)N(Cc2ccc(Cl)cc2)Cc2ccc3cc[nH]c3c2)cc1 returned Ba CapD inh -0.14.
Screening COc1cc(OC)cc(C(c2[nH]c(C)nc2O)C(C#N)C#N)c1 (centres undefined) returned Ba CapD inh 37.8 and AID504770 0.8.
CCN(c1cccc(C)c1)S(=O)(=O)c1c[nH]c(C(=O)OC)c1 was read as Ba CapD inh -0.41 and AID504770 0.95.

(continued)
Screening N#CCSc1nnc2c(n1)[nH]c1ccccc12 returned Ba CapD inh -1.28 and AID504770 0.05.
Screening CCOC(=O)c1oc(C(=O)OCC)c(O)c1O returned Ba CapD inh 4.03 and AID504770 -0.55.
CC1CCCCC1NC(=O)/C=C/c1ccc2c(c1)OCO2 (centres undefined) was read as Ba CapD inh 21.8 and AID504770 -0.3.
`CCCNC(=O)CCc1nc(-c2ccccc2C)no1` gave Ba CapD inh -0.56 and AID504770 0.35.
`O=C(CCc1nc(-c2ccccc2)no1)NC1CCCCC1` gave Ba CapD inh -0.37 and AID504770 -1.
`FC(F)(F)c1ccc(Cl)c(NC(=S)Sc2ccc(Cl)cc2)c1` gave Ba CapD inh -0.075.
`CN(Cc1ccccc1)C1=CC2=CC(=C(C#N)C#N)CCC2CC1` (centres undefined) gave AID504770 -0.8.
Screening O=c1[nH]c(=O)n(-c2ccc(Cl)cc2)c2c1CN(CCCc1ccccc1)CN2 returned Ba CapD inh 0.31 and AID504770 1.2.
Screening O=C(OCCN1C(=O)c2ccccc2C1=O)C1CCN(S(=O)(=O)c2cccs2)CC1 returned AID504770 -0.65.
Screening CCN(Cc1ccccc1)C(=O)Cn1c(=O)n(CC(=O)NCc2ccco2)c(=O)c2sccc21 returned Ba CapD inh -2.07 and AID504770 0.15.
Screening O=C(Nc1ccc(Cl)cn1)c1ccc(COCC(F)(F)C(F)F)o1 returned Ba CapD inh -0.525 and AID504770 1.2.
`CO/N=C(/C(=O)N[C@@H]1C(=O)N2C(C(=O)O)=C(COC(N)=O)CS[C@H]12)c1ccco1` gave Ba CapD inh -1.19.
For COc1ccc2nc(-c3ccccc3)nc(NCCN3CCCC3)c2c1 the results were Ba CapD inh 11.5.
`O=C(c1ccc(F)cc1)c1c[nH]c2ccccc2c1=O` gave Ba CapD inh 0.345 and AID504770 -0.1.
CC1(NC(=O)CSC(C)(C)C)CCS(=O)(=O)C1 (centres undefined) was read as AID504770 -0.2.
Screening CCNC(=O)c1ccc2c(c1)S(=O)(=O)c1ccccc1C2=O returned AID504770 -0.25.
For NC(=O)COC(=O)c1ccc(Cl)cc1N the results were Ba CapD inh 97 and AID504770 0.6.
Screening COC(=O)c1c(N2C(N)=C(C#N)C(c3cccnc3)C3=C2CCCC3=O)sc2c1CCCCC2 (centres undefined) returned Ba CapD inh -0.04.
Screening CC(C)c1ccc(O)c(CN2CCN(c3ccccc3)CC2)c1 returned Ba CapD inh inactive and AID504770 0.
CC(=O)N1N=C(C)CC1c1ccc(OCc2ccccc2)cc1 (centres undefined) was read as Ba CapD inh -0.395 and AID504770 0.1.

The list is partial, so the mix of outcomes need not match the whole.
